# Screening results deposited in PubChem by ICCB-Longwood Screening Facility, Harvard Medical School.
# GIV Gai3 FP = GIV-Galpha-i interaction inhibition; P08753; Galpha-i3/FITC-GIV peptide fluorescence polarization, 90 min; hits give low values; scaled: aluminum fluoride 0%, vehicle 100%; percent of control (FP), % (no concentration beside the values); 210,000 compounds, 0.42% hits;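 active = replicate mean at 85% of control or lower, very high polarization wells dropped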;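 note: wells of about 15 µL received 100 nL stock; the first replicate is given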
# Target sequence (P08753 whole entry, looked up): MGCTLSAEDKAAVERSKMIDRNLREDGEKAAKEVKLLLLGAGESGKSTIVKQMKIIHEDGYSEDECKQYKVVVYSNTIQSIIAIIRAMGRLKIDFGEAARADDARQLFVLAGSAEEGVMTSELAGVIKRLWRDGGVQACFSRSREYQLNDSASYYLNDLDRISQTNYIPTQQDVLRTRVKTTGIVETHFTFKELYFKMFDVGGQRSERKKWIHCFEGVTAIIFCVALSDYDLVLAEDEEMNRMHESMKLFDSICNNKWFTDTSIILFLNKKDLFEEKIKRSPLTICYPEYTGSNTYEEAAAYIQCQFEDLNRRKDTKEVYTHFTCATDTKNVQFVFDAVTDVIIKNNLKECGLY
# HCMV UL50-53 inh = cytomegalovirus nuclear egress complex inhibition | inhibition, % (no concentration beside the values) | HTRF UL50-UL53 interaction, normalized percent inhibition | 190,000 compounds, 0.15% hits;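 active = both replicates at 50% or more, plus weaker picks with an unusually low signal ratio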;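 note: stock transfer was 100 nL into about 20 µL; 0% = negative control wells and 100% = wells with untagged competitor protein; inactives centre near -12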
# Sa growth inh = S. aureus growth inhibition; S. aureus RN4220 growth, OD600, 20 h, 42 °C; hits give low values; relative growth, % (concentration not given with the values); AID 720641; 170,000 compounds, 0.53% hits;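 active = growth at 42 °C up to 50% and 20 or more points under that at 30 °C, or under 10% at both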;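 note: 300 nL library stock went into each well; scaled to the means of positive and negative controls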
# Sa growth inh second temp = recorded beside Sa growth inh, whose call it bears; relative growth, %; measured here: growth at 30 °C;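 optical density after 20 h as mean of two plates; 100% = untreated growth and lower means inhibition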
# * = called active by the depositor; nt = not tested or not shown; & = joins results of further samples.
(1) CCS(=O)(=O)NCCc1csc(C)n1
(2) COc1ccc(CNC(=O)c2ccc3c(c2)N(C)C(=O)C2CCCCN32)cc1OC (stereo unspecified)
(3) CCCCCCCCCCOc1cc2c(=O)c(C(=O)OCC)c[nH]c2cc1OCC
(4) COc1ccccc1NC(=O)c1ccc2c(c1)C(=O)N(CC1CCCO1)C2=O (stereo unspecified)
(5) CCOC(=O)c1ccc2ncc(C(=O)OCC)c(NCCCN3CCOCC3)c2c1
(6) O=c1c(S(=O)(=O)c2ccccc2)c[nH]c2ccccc12

Assay by compound	1	2	3	4	5	6
GIV Gai3 FP	101	96	nt	101	105	98
HCMV UL50-53 inh	nt	nt	-43	nt	-6	1
Sa growth inh	101	83	93	107	96	73
Sa growth inh second temp	86	83	88	79	80	86

(7) COc1ccc(C(=O)N(CC#N)CC#N)cc1OC
(8) COc1ccc(C(=O)NCC(=O)NC2=NCCS2)cc1
(9) O=C1NC(=Nc2ccc(Cl)cc2)SC1Cc1ccc(Cl)cc1 (stereo unspecified)
(10) CSc1cccc(N2CC(C(=O)O)CC2=O)c1 (stereo unspecified)
(11) O=P(c1ccccc1)(c1ccccc1)C(O)c1ccc2c(c1)OCO2 (stereo unspecified)
(12) CC1=C(C(=O)Nc2ccc(Cc3ccncc3)cc2)C2(CCCCC2)OC1=O

Assay by compound	7	8	9	10	11	12
GIV Gai3 FP	101	100	105	nt	105	112
HCMV UL50-53 inh	-1	-8	-12	-17	-5	-15
Sa growth inh	99	103	nt	102	103	nt
Sa growth inh second temp	98	92	nt	83	93	nt

(13) O=C(O)CCN=C1CCc2ccccc2N1
(14) CC(C)(C)Oc1ccc(CC(CO)NC(=O)OCC2c3ccccc3-c3ccccc32)cc1 (stereo unspecified)
(15) c1nc(NC2CCCC2)c2c3c(sc2n1)CCC3
(16) CN1CCN(C(=O)c2cn(-c3ccccc3)nc2-c2cccs2)CC1
(17) CC(=O)NCc1ccccc1
(18) CCN(CC)S(=O)(=O)c1ccc2oc(C(=O)Nc3cccc(Cl)c3)c(C)c2c1

Assay by compound	13	14	15	16	17	18
GIV Gai3 FP	110	98	nt	nt	nt	101
HCMV UL50-53 inh	-22	-42	-8	-4	-29	nt
Sa growth inh	84	85	107	101	85	125
Sa growth inh second temp	89	85	85	91	90	87

(19) CSc1ncc(C(=O)NCc2ccccc2)c(C)n1
(20) CC1(C)Cc2cccc(OCC(=O)OCC(=O)c3ccc4[nH]c(=O)[nH]c4c3)c2O1
(21) COc1cc(C(C(=O)Nc2c(C)cccc2C)N(C)C(=O)c2ccc(-n3cnnn3)cc2)ccc1O (stereo unspecified)
(22) CCS(=O)(=O)c1ccc2c(c1)NC(=S)CO2
(23) O=C(CC1CCCCC1)N1CCC(N2CCN(Cc3ccc(F)cc3)C(=O)C2=O)CC1
(24) CCOCCC(=O)Nc1ccccc1C(F)(F)F

Assay by compound	19	20	21	22	23	24
GIV Gai3 FP	118	nt	103	98	98	109
HCMV UL50-53 inh	nt	-40	-23	-53	-10	6
Sa growth inh	114	95	112	nt	nt	102
Sa growth inh second temp	96	79	81	nt	nt	106

(25) COc1ccc([N+](=O)[O-])cc1NC(=O)c1sc2ncnc(N3CCN(c4ccccn4)CC3)c2c1C
(26) CCC1Cn2c(C(=O)NCCN(C)C3CCCCC3)cc3cccc(c32)O1 (stereo unspecified)
(27) COc1ccc(N2C(=O)C(CC(=O)Nc3ccc(F)cc3)N(Cc3ccc4c(c3)OCO4)C2=O)cc1 (stereo unspecified)
(28) CC(C)Cn1c(=O)c(-[n+]2ccccc2)c([O-])c2ccccc21
(29) COc1ccc(N2CCN(C(=O)c3c(C)oc4nc(C)nc(N5CCCC5)c34)CC2)cc1
(30) CC(CN1C(C)CCCC1C)OC(=O)c1ccc(Cl)cc1 (stereo unspecified)

Assay by compound	25	26	27	28	29	30
GIV Gai3 FP	107	102	101	95	105	107
HCMV UL50-53 inh	6	1	-20	nt	nt	-4
Sa growth inh	nt	nt	113	85	97	107
Sa growth inh second temp	nt	nt	82	81	85	86

(31) NC(=O)C1CCN(CC(=O)N2N=CCC2c2ccccc2)CC1 (stereo unspecified)
(32) CC(=O)c1cccc(Nc2nc(-c3ccccc3Cl)nc3ccccc23)c1
(33) COc1ccc(-n2nc(C(=O)N3CCC(N4CCCCC4)CC3)c3c4ccccc4n(C)c3c2=O)cc1
(34) CC(=C1C(=O)c2ccccc2C1=O)N1CCN(Cc2ccccc2)CC1
(35) CCn1c(=O)c2cc(C(=O)N(CCCOC(C)C)Cc3ccco3)sc2c2ccccc21
(36) CCc1ccccc1NC(=O)c1ccc2c(O)c(S(=O)(=O)c3ccccc3)c(=O)[nH]c2c1

Assay by compound	31	32	33	34	35	36
GIV Gai3 FP	103	114	98	106	101	100
HCMV UL50-53 inh	-3	-29	-31	-54	-38	nt
Sa growth inh	107	88	nt	131	92	101
Sa growth inh second temp	92	83	nt	71	73	85

(37) CC1CCN(S(=O)(=O)N2CCCC(C(=O)O)C2)CC1 (stereo unspecified)
(38) O=C(NCCCN1CCc2ccccc2C1)c1cc(=O)n2c(nc3ccccc32)s1
(39) CCCn1c(=O)c2ccccc2n2c(=O)n(CC(=O)N3CCN(c4ccccc4F)CC3)nc12
(40) O=C1CCCc2nccc(-c3ccccc3)c21
(41) COc1ccc(Cn2ccc3nc(C)c(C(=O)N4CCN(c5ccccc5F)CC4)cc3c2=O)cc1
(42) O=C(/C=C/c1ccco1)OCC(=O)c1ccc(O)cc1O

Assay by compound	37	38	39	40	41	42
GIV Gai3 FP	103	101	106	106	98	nt
HCMV UL50-53 inh	-7	-32	0	-28	nt	0
Sa growth inh	101	nt	nt	82	80	109
Sa growth inh second temp	98	nt	nt	79	93	92

# Next section; the last three above are carried over.
(40) O=C1CCCc2nccc(-c3ccccc3)c21
(41) COc1ccc(Cn2ccc3nc(C)c(C(=O)N4CCN(c5ccccc5F)CC4)cc3c2=O)cc1
(42) O=C(/C=C/c1ccco1)OCC(=O)c1ccc(O)cc1O
(43) COc1ccccc1CCNS(=O)(=O)c1ccc(N2CCCCS2(=O)=O)cc1
(44) O=C1CC(c2ccccc2)Sc2ccccc2N1Cc1ccccc1F (stereo unspecified)
(45) CN(C)CCNc1oc(-c2ccc(COc3ccc(Cl)cc3)o2)nc1C#N
(46) COc1ccccc1Nc1nnc(SCC(=O)Nc2ccnn2C(C)C)s1
(47) CCCCOc1ccc(C(=O)Nc2cccc(NC(=O)c3ccco3)c2)cc1
(48) COc1ccc(-c2nc(CNC(=O)Nc3ccccc3)c(C)o2)cc1

Assay by compound	40	41	42	43	44	45	46	47	48
GIV Gai3 FP	106	98	nt	105	101	101	nt	101	106
HCMV UL50-53 inh	-28	nt	0	nt	-28	-38	7	-8	nt
Sa growth inh	82	80	109	89	107	95	97	115	116
Sa growth inh second temp	79	93	92	79	84	84	96	87	92

(49) CCCC(CCC)C(=O)N1CCNc2ccccc2C1
(50) C/C=C/c1n(C)c2ccccc2[n+]1C
(51) CCOC(=O)C1=CN(c2ccc(C)cc2)C=C(C(=O)OCC)C1c1cc(OC)c(OC)c(OC)c1
(52) COc1ccc(C(Nc2cc(C)ccn2)c2ccc3cccnc3c2O)cc1O (stereo unspecified)
(53) COc1ccc(C(=S)N2CCCCC2)cc1OC
(54) COc1ccc(S(=O)(=O)NCCc2cn3ccsc3n2)cc1OC

Assay by compound	49	50	51	52	53	54
GIV Gai3 FP	104	98	106	98	101	104
HCMV UL50-53 inh	nt	-7&-2	-11	-97	nt	nt
Sa growth inh	109	87	nt	54	89	102
Sa growth inh second temp	85	91	nt	18	89	85

(55) O=C(OC1CCCC1)c1c(F)cccc1Cl
(56) CN(C(=O)N1c2ccccc2Sc2ccccc21)c1ccccc1
(57) CC(=O)Nc1c(C(=O)c2ccccc2)oc2ccccc12
(58) CCOc1ccc(-c2nonc2NC(=O)c2ccco2)cc1OCC
(59) CC1=C(C(=O)Nc2cccnc2)C(c2ccccc2)n2nc(SCc3ccccc3Cl)nc2N1 (stereo unspecified)
(60) CSCc1c(C(=O)Nc2ccccc2N2CCOCC2)oc2ccccc12

Assay by compound	55	56	57	58	59	60
GIV Gai3 FP	nt	98	nt	103	97	nt
HCMV UL50-53 inh	20	nt	-21	13	-60	-22
Sa growth inh	89	91	70	85	106	77
Sa growth inh second temp	96	63	87	86	99	91

(61) COc1ccc(C2=NN(S(=O)(=O)c3ccccc3)C(c3ccc(OC)cc3)C2)cc1 (stereo unspecified)
(62) N#Cc1cccc(C(=O)Nc2ccc(S(=O)(=O)N3CCCCC3)cc2)c1
(63) O=C(COc1ccc(F)cc1)N1CCC(N2CCN(Cc3ccc(F)cc3)C(=O)C2=O)CC1
(64) CCn1c(CSc2ccc(OC)cc2)nc2cc(S(=O)(=O)N3CCCCC3)ccc21
(65) CC1CC(N)C(=O)O1 (stereo unspecified)
(66) CCOC(=O)c1c(N)n(-c2ccccc2CC)c2nc3ccccc3nc12

Assay by compound	61	62	63	64	65	66
GIV Gai3 FP	98	nt	96	nt	nt	103
HCMV UL50-53 inh	-16	-28	-7	-23	-31	nt
Sa growth inh	nt	85	nt	108	102	120
Sa growth inh second temp	nt	91	nt	90	90	103

(67) O=C1COc2ccc(S(=O)(=O)N3CCN(C(=O)Nc4ccc(F)cc4)CC3)cc2N1
(68) CCOc1ccc(NC(=O)NCCCN2CCCC2)cc1
(69) Cc1c(Br)c(C(F)(F)F)nn1CC(=O)Nc1cc(Oc2cccnc2)cc([N+](=O)[O-])c1
(70) O=S(=O)(c1ccc(S(=O)(=O)N(Cc2ccc(Cl)cc2)CC2CCCO2)cc1)N1CCCCC1 (stereo unspecified)
(71) CCc1cccc(NC(=O)c2ccc(NC(=O)N3CCSc4ncccc43)cc2)c1
(72) COc1ccccc1N1CCN(CC(=O)c2ccc(F)cc2)CC1

Assay by compound	67	68	69	70	71	72
GIV Gai3 FP	106	106	100	105	104	104
HCMV UL50-53 inh	-18	nt	-13	-28	nt	0
Sa growth inh	nt	118	nt	nt	103	124
Sa growth inh second temp	nt	92	nt	nt	94	78

(73) C=CCOc1c(-c2ccco2)oc2ccccc2c1=O
(74) O=C(CSc1ncc(C(F)(F)F)cc1Cl)N1CCNC1=O
(75) COc1ccc(-c2csc3c(C#N)c(C)cc(=O)n23)cc1
(76) FC(F)(F)c1nnc2ccc(-n3ccnc3)nn12
(77) CC(C)OCCCN(Cc1ccco1)C(=O)c1cc2c(s1)-c1ccccc1OC2
(78) c1ccc(Nc2nc(Nc3ccccc3)nc(Sc3nc4ccccc4[nH]3)n2)cc1

Assay by compound	73	74	75	76	77	78
GIV Gai3 FP	113	nt	nt	nt	99	99
HCMV UL50-53 inh	-41	9	1	-23	-32	nt
Sa growth inh	75	88	110	98	96	98
Sa growth inh second temp	76	98	90	76	66	64

(79) Cc1ccc(C)c(CN2C(=O)c3ccccc3S(=O)(=O)c3ccc(C(=O)NCc4ccccc4)cc32)c1
(80) COc1ccc(/C=N/S(=O)(=O)c2ccccc2)c(OC)c1
(81) CCCN(C(=O)CCNC(=O)Cn1cnc2ccccc2c1=O)c1cccc(C)c1
(82) COc1cc(/C=N/NC(=S)NCc2ccco2)ccc1O
(83) O=C1N=c2ccc(F)cc2=C1c1sc(=Nc2ccccc2)n(-c2ccccc2)c1O
(84) CC1=C(C(=O)Nc2ccccc2Br)C2(CCCCC2)OC1=O

Assay by compound	79	80	81	82	83	84
GIV Gai3 FP	105	106	105	103	98	100
HCMV UL50-53 inh	0	10	-35	-3	-18	nt
Sa growth inh	111	97	105	95	nt	78
Sa growth inh second temp	112	90	80	89	nt	86

(85) CCOC(=O)c1ccc(NC(=O)CSc2nc3ccccc3c(=O)n2CCNC(C)=O)cc1
(86) O=C(CSc1ncn[nH]1)Nc1ccccc1Cl
(87) O=C(CSc1ncc2c(n1)-c1ccccc1N(Cc1ccc(F)cc1)S2(=O)=O)NCCc1ccccc1
(88) CCOc1ccc(-c2noc(-c3cnn4c(C)c(Cc5ccccc5C)c(C)nc34)n2)cc1
(89) O=C1CC(c2ccccc2)CC(O)=C1C=NCc1ccccn1 (stereo unspecified)
(90) O=C(c1cc2sccc2n1Cc1ccccc1)N1CCCC1

Assay by compound	85	86	87	88	89	90
GIV Gai3 FP	105	100	101	140	101	100
HCMV UL50-53 inh	nt	-2	nt	-8	-6	0
Sa growth inh	129	104	96	nt	104	99
Sa growth inh second temp	94	84	81	nt	100	79

(91) Cc1ncc(CO)c2cc(C(=O)NC3=CC4OCOC4C=C3)c(=Nc3ccccc3)oc12 (stereo unspecified)
(92) Cc1ccc2nc(NC(=O)Cn3cccc3)sc2c1
(93) CCN(CC)CCCNC(=O)c1ccc2nc(CCc3ccccc3)oc2c1
(94) COc1ccc(-c2nn3c(-c4ccc5ccccc5n4)nnc3s2)cc1OC
(95) O=C(NCc1ccc2c(c1)OCO2)c1ccccc1-c1nc(-c2ccccc2)no1
(96) Cc1oc2c(F)c(F)c(F)c(F)c2c1/C(N)=N/O
(97) Cc1ccc(S(=O)(=O)N2CCN(S(=O)(=O)c3ccc(C)cc3)CC2)cc1
(98) Cc1ccc(CCNC(=O)CCCn2nc(C)c3c(C)n(-c4ccc(C)cc4)nc3c2=O)cc1

Assay by compound	91	92	93	94	95	96	97	98
GIV Gai3 FP	106	104	100	127	99	108	103	101
HCMV UL50-53 inh	nt	-1	nt	-40	-2	3	-25	nt
Sa growth inh	123	101	108	nt	nt	115	96	104
Sa growth inh second temp	77	93	92	nt	nt	94	90	88
